# Assay outcomes deposited in PubChem by National Center for Advancing Translational Sciences (NCATS).
# Rango-impB inh = Rango-importin beta binding inhibition. Q14974. Rango CFP/YFP FRET sensor + importin beta, 45 min. Potency, µM (series often up to 92.2 µM), inactives show at the highest dose inhibition of complex formation. hit rate 0.031% among 340,000. AID 540263; active = rising FRET ratio curve, often small or poorly fitted; inconclusive = mostly compound fluorescence or quenching in the first reads; inactive = flat curves in all reads;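 note: potency is the fitted concentration of half-maximal effect; 0% = DMSO wells and 100% = buffer wells lacking importin beta; nearly all actives have a fitted effect of over 15% in size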
#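 Inhibition scored from the CFP 486 nm/YFP 530 nm FRET ratio 45 min after adding 0.125 microM importin beta to 50 nM Rango biosensor preincubated 5 min with compound (room temperature, PBS with DTT, Tween-20, BSA). No-importin wells as positive control.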
# miR-21 reporter = raises the signal of a miR-21 reporter. HeLa miR-21 FLuc reporter, luciferase, 48 h. Potency, µM (highest dose often 38.3 µM), for the others: at the highest dose reporter change, positive = more light. AID 2288. 340,000 tested, under 10 active; active = well fitted rising curve with a large enough effect; inconclusive = small, poorly fitted or top-dose-only effect; inactive = no such curve, though single readings can be large or run the other way;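 note: % of control where 0% means no effect; miR-21 action dims this reporter so a rising signal means less miR-21 action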
#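 Using DMEM plus 10% FBS, HeLa miR-21-FLuc cells are incubated with test compounds (final up to about 40uM) for 48 hours; firefly luciferase signal is then imaged following reagent-mediated lysis.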
# Rango dissoc inh = prevents RanGTP from dissociating the Rango-importin beta complex. Biochemical FRET Rango-importin beta, RanGTP-induced dissociation. Potency, µM (titrated, usually from 46.1 µM), inactives show at the highest dose activity change, negative = inhibition. hit rate 0.071% among 340,000. AID 540253; active means falling FRET ratio curve, often poorly fitted, with flat reads before Ran was added; inconclusive means other falling curves, or compound fluorescence or quenching; inactive means flat or rising ratio curve;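 note: potency is the fitted concentration of half-maximal effect; % of control where 0% means no effect; nearly all actives have a fitted effect of over 45% in size; -100% = wells without RanGTP and RCC1; the record marks most hits as doubtful in a second field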
#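 Quantitative HTS using a FRET biosensor: 0.1 uM Rango, 0.25 uM importin beta, 0.6 uM Ran, 2 mM GTP, 0.2 uM RCC1 final, PBS with DTT, Tween-20 and BSA. Post-read taken 45 min after Ran addition.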
# GLA inh pH 4.5 = alpha-galactosidase A (human) inhibition, pH 4.5; purified enzyme, 4-MU-alpha-Gal fluorescence, pH 4.5; 230,000 tested, under 10 active; AID 1467; activity change, negative = inhibition, % at 105 µM; P06280; inconclusive = small, poorly fitted or top-dose-only inhibition, or a rising curve; inactive = flat fitted curve, though single readings scatter; no compound was filed as active;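 note: 0% = full activity with enzyme and -100% = basal without enzyme; dose as in the result columns while the protocol names 77 µM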
# Target sequence (P06280 whole entry, looked up): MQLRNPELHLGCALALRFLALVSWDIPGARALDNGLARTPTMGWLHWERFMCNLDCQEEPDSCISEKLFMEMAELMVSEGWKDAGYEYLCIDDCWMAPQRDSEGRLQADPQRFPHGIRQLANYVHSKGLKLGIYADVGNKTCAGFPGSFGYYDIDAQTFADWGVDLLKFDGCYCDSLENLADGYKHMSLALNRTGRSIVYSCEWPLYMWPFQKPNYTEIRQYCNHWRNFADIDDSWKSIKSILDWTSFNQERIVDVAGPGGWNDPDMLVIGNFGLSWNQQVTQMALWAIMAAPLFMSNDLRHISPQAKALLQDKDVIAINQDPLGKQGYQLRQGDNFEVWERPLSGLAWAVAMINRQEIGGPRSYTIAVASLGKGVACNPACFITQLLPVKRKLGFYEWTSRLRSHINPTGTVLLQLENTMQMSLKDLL
# Starred values were filed as active, the others as inactive; ? = inconclusive; / = no result given; & = joins results of further samples.
canonical_smiles | Rango-impB inh | miR-21 reporter | Rango dissoc inh | GLA inh pH 4.5
O=C(c1cccc2ccccc12)C1CCCN(C(=O)CCCn2cncn2)C1 (stereo not drawn) | 2.1% | -7.2% | -12.8% | 5.8
OCCN1CCN(C(=S)Nc2ccccc2)CC1 | ? | -0.7% | -9.3% | 1.1
CC1CC(C)CN(C(=O)CCS(=O)(=O)c2ccc3c(c2)NC(=O)CS3)C1 (stereo not drawn) | 0.9% | 5.9% | 13.2% | /
CCC(C(=O)NC(C)(C)C)N(Cc1ccccc1Cl)C(=O)c1snc(C(N)=O)c1N (stereo not drawn) | 0.3% | 0.3% | 8.5% | /
COc1ccc(O)c(C(=O)c2coc(=N)c(C(=O)Nc3ccc(SC(F)F)cc3)c2)c1 | ? | 21.0% | ? | 4.8
CC(C)c1ccc2nc3sc(C(=O)N4CCc5ccccc5C4)c(N)c3cc2c1 | ? | -22.7% | ? | -2.9
Cc1ccc(C(C(=O)NC2CCCC2)N2CCCC(C)C2)cc1 (stereo not drawn) | 6.8% | -4.9% | 3.1% | -0.3
O=C(Oc1cccc2c(OC(=O)N3CCCC3)cccc12)N1CCCC1 | 2.9% | -4.7% | ? | 6.6
C=CCNC(=O)c1ccc(N(C)S(=O)(=O)c2ccc(OC)cc2)cc1 | 1.9% | 0.4% | 16.0% | 14.0
CCc1nc2ccc(C(=O)NCCc3ccco3)cc2nc1CC | 0.3% | -60.0% | 24.1% | /
CN(C)C(=O)OCc1c(-c2ccccc2)ncc2ccccc12 | 1.7% | / | -4.4% | /
CC(=O)Oc1ccc(C(=O)Nc2cccc(C(=O)Nc3ccccc3C(=O)O)c2)cc1 | -2.7% | 11.1% | -3.5% | /
CS(=O)(=O)N(CC(=O)NCc1ccc2c(c1)OCO2)c1cccc(Cl)c1 | 2.5% | -5.7% | -11.1% | 4.1
COc1ccc(OC)c(S(=O)(=O)NCc2cn3cccc(C)c3n2)c1 | 0.8% | -12.8% | 16.7% | 1.1
CCCC1CC(C)(C(=O)Cn2[nH]c(=O)ccc2=O)OC1=O (stereo not drawn) | 0.3% | 1.7% | 0.8% | -1.8
O=S(=O)(c1ccccc1)N1N=C(c2ccc(Br)cc2)CC1c1ccco1 (stereo not drawn) | -0.6% | 14.4% | -5.7% | /
CC1CCN(CCCNC(=O)c2ccc(N3CCCC3=O)cc2)CC1 | 5.6% | -0.7% | 19.3% | /
Cc1ccc(C)c(NC(=O)CN(C)C(=O)C2CCCC2)c1 | -0.2% | / | -10.8% | /
CCCc1nc2oc3cc(OC)ccc3c(=O)c2c(=O)n1CCc1ccccc1 | 0.6% | 0.0% | 0.9% | -1.5
CCCNC(=O)c1onc(CSc2nc3ccccc3[nH]2)c1C(=O)NCCC | 1.1% | 5.1% | -11.8% | /
O=C(C[n+]1cccc2ccccc21)c1ccc([N+](=O)[O-])cc1 | 0.1% | 2.7% | -5.1% | 2.1
O=C(CCNC(=O)c1ccc([N+](=O)[O-])cc1)NC1CCCc2ccccc21 (stereo not drawn) | 3.1% | / | -4.2% | /
CC1(C)Cc2c(cnn2-c2ccc(F)cc2)C(NC(=O)C2CCC2)C1 (stereo not drawn) | -0.3% | -11.5% | -15.4% | /
Cc1ccc(CNC(=O)CN(C(=O)C2(C)CC(=O)N=C3C=CC=CN32)c2cc(C)ccc2C)cc1 (stereo not drawn) | 1.4% | 2.8% | 4.8% | /
CCN(CC)CCCN=C1N[C@@H](c2cccc(F)c2)C(C(=O)OC)=C(C)N1Cc1ccccc1 | -0.2% | / | 0.3% | /
CCC(C)n1c(=O)c2sccc2n2c(CCCC(=O)N3CCC(C(N)=O)CC3)nnc12 (stereo not drawn) | -1.3% | 1.1% | -3.5% | /
CC(CCc1ccccc1)NC(=O)c1ccc(Br)cc1 (stereo not drawn) | -2.4% | -26.7% | -7.6% | /
COc1ccc(O)c(/C=N/NC(=O)CCC(=O)Nc2ccc(F)cc2)c1 | -0.1% | -3.0% | ? | /
COc1cccc(N2CC(C(=O)NC3CCCCC3)CC2=O)c1 (stereo not drawn) | ? | -0.9% | 14.4% | 9.8
CCCCCCCSc1nsc(N)n1 | -0.7% | -39.9% | 0.2% | -3.1
COC(=O)c1ccccc1OS(=O)(=O)N(C)C | 0.7% | 1.4% | 14.5% | -1.0
CCC(=O)Nc1c(C(=O)N2CCN(c3ccccn3)CC2)cnn1-c1ccc(Cl)cc1 | 12.1% | -2.4% | 11.0% | 2.1
CC(=O)c1cccc(NC(=O)COC(=O)c2ccc3c(c2)OCO3)c1 | -2.2% | / | 5.2% | /
COc1ccc2[nH]c(C(=O)NCCN3CCCCC3)cc2c1 | ? | -4.7% | -17.0% | 4.7
O=C(O)C1C2C=CC(O2)C1C(=O)NCc1ccccc1Br (stereo not drawn) | -1.3% | 2.8% | 18.1% | -0.7
CC(C)C1CC(CCN)(c2ccccc2)CCO1 (stereo not drawn) | 0.0% | -0.3% | 9.1% | 1.9
CC(C)CC1(C)NC(=O)N(CC(=O)NC(=O)Nc2ccc3c(c2)OCCO3)C1=O (stereo not drawn) | 2.7% | -16.0% | -2.5% | -6.5
O=[N+]([O-])c1cc(-c2n(-c3ccccn3)c3ccccc3[n+]2-c2ccccn2)ccc1Cl | -0.7% | 15.3% | 4.0% | -8.3
Cc1cc2c(c(=O)n1Cc1cccnc1)C(Cc1ccccc1)C(C#N)=C(N)O2 (stereo not drawn) | ? | -18.6% | -8.6% | -0.9
CC(=O)Nc1ccc2nc(NC(=O)COc3ccc([N+](=O)[O-])cc3)sc2c1 | 0.6% | -1.0% | 3.0% | 6.5
CCn1ccnc1CN(C)Cc1cn(-c2ccc(C)cc2)nc1-c1ccc(F)cc1 | 0.6% | 2.6% | 0.4% | -18.0
COc1ccc(-c2cc(C(=O)N3CCOCC3)c3ccccc3n2)cc1OC | 0.1% | / | -11.7% | /
O=C(NNC(=O)c1ccc(Cl)c(Cl)c1)c1ccncc1 | -1.4% | / | 6.5% | /
O=C(CCN1C(=O)/C(=C\C=C\c2ccccc2)SC1=S)Nc1ccccc1C(=O)O | 0.2% | -5.6% | 0.1% | /
CC1(C)Cc2cccc(OCC(=O)NCCc3ccccc3)c2O1 | 0.9% | / | -15.3% | /
Cn1c(=O)cc(OCCCC(=O)N2CCN(c3ccccc3)CC2)c2ccccc21 | 0.9% | -5.0% | 0.4% | 4.9
COC(=O)c1c(-n2c(C)cc(C=O)c2C)sc2c1CCCC2 | 3.1% | -22.6% | -13.4% | /
Cc1cccc(NC2(C(F)(F)F)N=C(c3ccccc3)NC2=O)n1 (stereo not drawn) | 4.3% | 5.2% | -4.5% | 2.1
Cn1c(=O)c2c(ncn2CC(O)CNc2cccc(Cl)c2)n(C)c1=O (stereo not drawn) | 2.3% | 11.2% | 1.8% | -12.3
COc1cc(S(=O)(=O)N2CCOCC2)ccc1NC(=O)COC(=O)/C=C/c1cc(OC)c(OC)c(OC)c1 | 3.3% | / | -1.1% | /
O=C(O)C1CCCN1c1ncnc2c1oc1ccccc12 (stereo not drawn) | 0.7% | -28.9% | -0.1% | -1.5
O=C(CN1CCC(c2nc3ccccc3s2)CC1)N1CCCCC1 | ? | -8.8% | -6.0% | 6.3
COc1ccc(-c2csc(Nc3cc(C)ccn3)n2)cc1OC | 1.3% | -14.3% | -3.2% | /
CC1(C)C[C@H]2C3=CCC4[C@@]5(C)CC[C@H](O)[C@](C)(CO)C5CC[C@@]4(C)[C@]3(C)C[C@@H](O)[C@@]2(CO)[C@@H](O)[C@@H]1O (stereo partly drawn) | 0.3% | / | -6.6% | /
COc1ccc(NC2CCCN(C(=O)c3ccc4[nH]c(C)c(C)c4c3)C2)cc1OC (stereo not drawn) | 2.8% | -11.2% | 11.4% | /
CCSC1=NCCN1S(=O)(=O)c1ccc(F)cc1 | -2.5% | -11.4% | -0.7% | 1.5

# Continued:
canonical_smiles | Rango-impB inh | miR-21 reporter | Rango dissoc inh | GLA inh pH 4.5
COC(=O)c1ccccc1S(=O)(=O)N1CCC(C(=O)OCC(=O)c2ccccc2OC)CC1 | -0.1% | / | -5.1% | /
Nc1nc2sc3c(c2cc1C(=O)N1CCOCC1)CCCC3 | -1.8% | -32.6% | 7.3% | 8.3
COc1ccc(CCN2CC(C(=O)NCc3cnn(C(C)C)c3)CCC2=O)cc1 (stereo not drawn) | -5.7% | -1.0% | 9.3% | /
CC(NC(=O)CCNC(=O)c1ccc(Br)cc1)c1ccc(S(N)(=O)=O)cc1 (stereo not drawn) | -0.9% | / | 34.2% | /
CCn1cc(S(=O)(=O)CC(=O)Nc2cccc(C)c2)c2ccccc21 | -0.2% | -0.5% | 4.4% | 4.1
COc1ccc(-c2ccc(CNCCCN3CCOCC3)o2)cc1Cl | ? | -17.0% | 12.3% | 0.7
CCC(C)(C)NC(=O)c1ccc(Br)o1 | -3.2% | -5.2% | 14.1% | -3.9
COc1ccc(-c2cc3ccc(OCC(N)=O)cc3oc2=O)cc1OC | -0.1% | -28.6% | -16.1% | /
Cc1ccc2nc(C)cc(OCC(=O)O)c2c1 | 0.3% | -4.4% | 8.4% | 3.4
COc1ccc(/C=N/NC(=O)C2C(C=C(Cl)Cl)C2(C)C)c(OC)c1 (stereo not drawn) | -5.3% | -2.5% | -12.0% | -3.6
CC(=O)Nc1ccc(CN2CCc3c([nH]c4ccccc34)C2c2ccccn2)cc1 (stereo not drawn) | ? | 17.8% | -9.8% | -1.0
CCN1C(C(=O)Nc2cc(C)on2)=C(O)c2ccccc2S1(=O)=O | 0.1% | -2.0% | -8.0% | /
CN1C(=O)C(O)(CC(=O)c2ccccc2O)c2cc(Br)ccc21 (stereo not drawn) | 5.8% | 17.3%&25.2% | 16.6% | -2.5&-11.5
O=C(NC1(C(F)(F)F)OCCO1)c1ccc(F)cc1 | 1.1% | -6.3% | 21.5% | 3.9
CN1CCN(S(=O)(=O)c2ccc(Cc3ccc(S(=O)(=O)N4CCN(C)CC4)cc3)cc2)CC1 | -1.4% | -0.6% | 1.6% | 1.8
CCCn1c(NCc2cc(OC)ccc2OC)nc2ccccc21 | 1.8% | -49.5% | 9.5% | -3.1
CCOc1ccc(C(=O)Nc2c3c(nn2-c2ccc(F)cc2)CS(=O)C3)cc1 (stereo not drawn) | 3.2% | -2.3% | 5.9% | 0.8
COc1cccc(CN2CC(C(=O)N(C)Cc3nc(C)cs3)CCC2=O)c1 (stereo not drawn) | -3.6% | -4.6% | 0.0% | /
COc1ccc(C2Nc3ccccc3C(=O)N2NS(=O)(=O)c2ccc(C)cc2)cc1OC (stereo not drawn) | 0.5% | 0.5% | 2.0% | /
Cc1cc(C)n2nc(N)c(N=Nc3ccc4c(c3)OCO4)c2n1 | ? | -21.4% | -6.1% | 7.9
COc1ccccc1NC(=O)N1CCN(CCc2ccccc2)CC1 | -2.9% | 1.3% | 8.3% | 2.4
CCOC(=O)c1cc(-c2ccccc2)sc1NC(=O)CSc1nnc(N)s1 | ? | -12.1% | 5.4% | 3.2
C=C(C)Cn1c(=O)c2c(nc3n2CC(C)CN3Cc2ccccc2)n(C)c1=O (stereo not drawn) | -0.6% | 4.1% | 16.4% | /
CC(=O)N1c2ccc(S(=O)(=O)N(C)CC(=O)NCc3ccc(C)cc3)cc2CC1C (stereo not drawn) | 2.9% | 2.4% | -10.2% | /
CCCNC(=O)C1CCCN(S(=O)(=O)c2ccc3c(c2)CC(C)N3C(=O)C2CC2)C1 (stereo not drawn) | 0.5% | -0.3% | -0.5% | /
OCC(O)C(O)C(O)C(O)c1nc2ccccc2[nH]1 (stereo not drawn) | -0.6% | 2.0% | 11.4% | 5.2
Cc1cc(=O)oc(C)c1C(=O)Nc1ccc(N(C)C)cc1 | 0.6% | -0.2% | 0.9% | -5.4
COC(=O)CCCC1=CC2=C(c3ccccc3)C(=O)C(C)(OC(=O)C3CCCC3)C(=O)C2=CN1CCN1CCOCC1 (stereo not drawn) | ? | 0.9% | -10.8% | 4.8&1.3
CC1C(=O)N2CCCc3cc(NC(=O)C(=O)NCCN4CCOCC4)cc1c32 (stereo not drawn) | -3.5% | / | -8.4% | /
COc1cc2[nH]c(C(=O)NCCc3ccccc3)cc2c(OC)c1OC | 0.1% | 0.9% | -10.9% | /
CC(=O)CC(=O)Nc1cccc2c1CCCC2 | ? | -7.7% | -4.2% | 1.4

# A portion of the library. The share of hits here may be higher or lower than overall.
